Assay outcomes as filed in PubChem.
TRPML1 inh = inhibitors of human TRPML1 channel | Q9GZU1 | TRPML1-inducible cells, Ca2+ dye fluorescence, FDSS; active compounds read low; inhibition of EC80 agonist-evoked calcium signal | activity change, negative = inhibition, % (no concentration beside the values) | 0.02% of 390,000 active; in the data active means activity change below about -50%; inconclusive means about -30% to -50%; inactive means above about -30%;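 also: stimulus is agonist 54-4 at its EC80 concentration; % is scaled to controls: 0 for no effect and ±100 for the full control effect; compound concentration not given in the record; the text of the record puts the active cut at -80%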
Target sequence (Q9GZU1 whole entry, looked up): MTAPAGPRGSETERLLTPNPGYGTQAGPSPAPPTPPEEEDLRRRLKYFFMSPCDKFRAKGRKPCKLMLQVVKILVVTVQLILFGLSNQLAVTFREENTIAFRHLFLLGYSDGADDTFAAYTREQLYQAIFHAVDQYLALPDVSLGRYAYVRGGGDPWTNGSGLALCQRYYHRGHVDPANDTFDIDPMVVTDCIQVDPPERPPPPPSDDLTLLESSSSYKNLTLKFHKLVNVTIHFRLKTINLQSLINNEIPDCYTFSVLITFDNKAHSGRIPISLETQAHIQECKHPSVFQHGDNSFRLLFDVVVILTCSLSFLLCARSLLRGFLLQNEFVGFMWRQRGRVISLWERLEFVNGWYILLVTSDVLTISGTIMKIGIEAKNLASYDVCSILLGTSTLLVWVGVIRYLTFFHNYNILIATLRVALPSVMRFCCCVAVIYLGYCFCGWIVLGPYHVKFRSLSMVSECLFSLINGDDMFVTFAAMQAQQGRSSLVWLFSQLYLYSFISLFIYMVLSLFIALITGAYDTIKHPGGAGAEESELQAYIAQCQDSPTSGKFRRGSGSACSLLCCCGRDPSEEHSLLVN
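Calcium fluorescence in TRPML1-DL cells induced overnight with Tet: a 110 s read after compound pin addition, then a 110 s antagonist read after challenge with 54-4 at 4 uM final (EC80).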
Sfp PPTase inh = blocks B. subtilis Sfp PPTase activity | Q9F4F7 | Potency, µM, for inactives: max response, negative = inhibition, hits mostly inhibitors | AID 1490 | 3.5% of 310,000 active | Biochemical Sfp PPTase activity, qHTS; active = well fitted inhibition curve with a large enough effect; inconclusive = small, poorly fitted or top-dose-only effect, or another doubt; inactive = no such curve, though single readings can be large or run the other way;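 also: the enzyme is Sfp with the accession as filed and its product quenches rhodamine fluorescence; potency is read from the fitted curve at half-maximal effect; 0% = enzyme reaction without inhibitor and -100% = no enzyme wells; top concentration of the series not given in the record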
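Step 1, compound plus 15 nM Sfp-PPTase, 15 min, room temperature. Step 2, add rhodamine-CoA (5 uM) and BHQ-2-YbbR (12.5 uM). Step 3, read 525/598 nm fluorescence at 0 and 30 min.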
gsp antagonist = antagonists of gsp mutant (McCune-Albright syndrome); AID 624288; Potency, µM (series often up to 76.9 µM), inactives show at the highest dose activity change, negative = inhibition, actives largely listed as inhibitors; gsp-mutant cells, cAMP HTRF, 30 min; control for the full effect not named in the record; 0.4% of 340,000 active; active = falling curve of any shape with a large fitted effect; inconclusive = falling curve, mostly with a smaller effect; inactive = flat or rising curve; cell line not stated here;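 also: intracellular cAMP measured with PDE inhibitor Ro 20-1724 present during compound exposure; potency is read from the fitted curve at half-maximal effect; % is scaled to controls: 0 for no effect and ±100 for the full control effect; nearly all actives have a fitted effect of over 65% in size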
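Cells, 2000/well, grown 16–24 h in DMEM 10% FBS with 0.5 mg/ml G418, then compounds plus […] (300 uM addition stock), 30 min at 37C. cAMP read by HTRF (cAMP-d2 and anti-cAMP antibody-K in lysis buffer) after 30 min RT.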
ClpP mod = qHTS Assay for Activators of ClpP. AID 651965, 2013. ATP-dependent Clp protease proteolytic subunit (Bacillus subtilis (strain 168)), P80244. Potency, µM (top dose mostly 57.5 µM), without a hit: at the top dose activity change, negative = active. purified B. subtilis ClpP, FRET peptide cleavage, 20 min. 1.9% of 340,000 active; active = well fitted falling curve with a large enough effect; inconclusive = small, poorly fitted or top-dose-only effect; inactive = no such curve, though single readings can be large or run the other way; also: potency is read from the fitted curve at half-maximal effect; the source files actives as falling curves though it sought activators and does not explain the sign; nearly all actives have a fitted effect of over 65% in size; many hits overshoot -100%
Target sequence (P80244 whole entry, looked up): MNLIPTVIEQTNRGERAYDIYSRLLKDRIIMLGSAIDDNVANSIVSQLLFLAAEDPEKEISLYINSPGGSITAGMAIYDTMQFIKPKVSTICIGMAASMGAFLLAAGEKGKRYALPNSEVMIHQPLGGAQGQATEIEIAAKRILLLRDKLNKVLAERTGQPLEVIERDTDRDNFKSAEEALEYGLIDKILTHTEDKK
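Purified B. subtilis ClpP, 10 microg/mL final in Tris/HCl pH8 with KCl, BSA, glycerol and Tween-20, cleaved an Abz/nitrotyrosine-quenched decapeptide. Fluorescence (ex 320, em 430) was read at 0 and 20 min at room temperature. Delta was normalized to 5.8 microM ADEP and DMSO/no-enzyme controls.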
Menin MLL FP FL = inhibitors of human menin-MLL interaction, wild-type MLL peptide | Fluorescence polarization, fluorescein-MLL peptide displacement from menin | FP activity change, % at 61.4 µM | AID 1766 | 290,000 tested, under 10 active; inconclusive = falling polarisation curve, or a change in total fluorescence; inactive = total fluorescence flat and polarisation flat or rising; no compound was filed as active; the % refers to the polarisation; negative = inhibition;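 also: % of control where 0% means no effect; inhibitors lower the polarisation; unlabelled MLL peptide was the positive control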
TRPV1 potentiator = human TRPV1 potentiation; Q8NER1; TRPV1-expressing cells, Fluo-8 calcium influx, capsaicin EC20 potentiation; host cell line not named in the record; control for the full effect not named in the record; potentiation, % at 8.33 µM; 0.02% of 320,000 active; AID 540277; active means potentiation above 80%; inconclusive means 30% to 80%; inactive means below 30%; also: 0% is about no effect
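Fluo-8 calcium influx in TRPV1-expressing cells, kinetic read (ex 480/em 520 nm). Compound added and read 3 min for agonist activity, followed by capsaicin at EC20 final and 2 min further read for enhancement.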
gsp agonist = agonists of gsp mutant (McCune-Albright syndrome). AID 624287. 0.13% of 340,000 active. gsp mutant cells, cAMP HTRF, 30 min; control for the full effect not named in the record. Potency, µM (highest dose often 76.9 µM), inactives show at the top dose activation (cAMP increase), most hits filed as activators; active = well fitted activation curve with a large enough effect; inconclusive = small, poorly fitted or top-dose-only effect, or another doubt; inactive = no such curve, though single readings can be large or run the other way; cell line not stated here;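 also: phosphodiesterase inhibitor Ro 20-1724 added with compounds to block cAMP breakdown; potency is read from the fitted curve at half-maximal effect; nearly all actives have a fitted effect of over 60% in size; about a fifth of the inactives were tested at one dose only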
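Cells stably selected in G418 were plated at 2000/well, grown 16-24 hr, then given compounds in DMSO with the PDE inhibitor […] (300 uM solution added) for 30 min at 37C; cAMP was read by HTRF.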
The depositor's hits bear a star; u = inconclusive; x = not tested or not shown; & = joins results of further samples; [ ] = another dose, or the depositor's remark.

SMILES	TRPML1 inh	Sfp PPTase inh	gsp antagonist	ClpP mod	Menin MLL FP FL	TRPV1 potentiator	gsp agonist
CCC(C)N1C(=O)C2C(C(=O)Nc3cccc(OC)c3)C3C=CC2(O3)C1C(=O)NC1CCCCC1C (centres undefined)	41	8%	0%	-4.0%	1.4	8	-16%
CC1=NN(C(=O)c2ccccc2Br)C(O)(c2ccc(Cl)cc2)C1 (centres undefined)	x	12%	-6%	0.5%	0.8	6	-27%
CC(C)NC(=O)CN1C(=O)c2cccc3cccc1c23	-16	24%	-9%	x	0.6	u	21%
CCCN1CNc2c(c(=O)[nH]c(=S)n2-c2ccc(Cl)cc2)C1	-2	-18%	7%	x	0.2	-5	4%[15.4 µM]
COc1ccccc1NC(=O)CSc1nc2n[nH]c(C)c2c(=N)n1-c1ccccc1Cl	2	14%	7%	-9.8%	5.8	10	-15%
CC(=O)N1CCCc2cc(S(=O)(=O)NC(C(=O)NC(C)c3ccccc3)C(C)C)ccc21 (centres undefined)	-3	4%	-5%	-2.4%	-0.9	12	24%
CN(C(=O)COC(=O)c1ccccc1SCC(=O)NC1CCCCCCC1)C1CCS(=O)(=O)C1 (centres undefined)	-7	-11%	-4%	-0.3%	4.7	11	-7%
Cc1cc(=O)oc2c1c(C(F)(F)F)nn2-c1ccccc1	-1	1%	-15%	0.0%	1.9	x	-10%
CCCN1CCC(=O)N(CCSc2ccccc2)CC1	29	11%	9%	-0.2%&0.6%	1.5	-26	x
CCOCCCN(C(=O)Cn1nnc(-c2ccc(C)o2)n1)C(C(=O)NC1CCCC1)c1ccco1 (centres undefined)	-6	13%	-2%	x	-3.5	-9	30%
Cc1ccc(C(=O)COC(=O)C2CC3CCCC(C2)C3=O)cc1[N+](=O)[O-] (centres undefined)	54	x	8%	-0.9%	x	-1	-27%
CNC(C)C(=O)NC(C(=O)N1CCCC1C(=O)NC1CCCc2ccccc21)C(C)C (centres undefined)	6	x	6%	1.0%	x	11	x
CCCOc1cccc(-c2cc(C(=O)N/N=C/c3cccnc3)c3ccccc3n2)c1	-14	4%	-21%	-4.3%	x	4	5%[15.4 µM]
O=C1CC(C(=O)Nc2cccc(F)c2)n2ncnc2N1 (centres undefined)	19	19%	13%	x	-3.8	6	7%[15.4 µM]
O=C(CCc1ccccc1)NNC(=O)COc1ccccc1	49	-3%	11%	0.0%	0.3	-34	-5%
Cc1occc1C(=O)NCc1ccc(C(=O)O)o1	8	50µM*	4%	0.2%	u	-2	-4%
CC(=O)NCc1ccc(-c2nc3ccccc3s2)cc1	7	9%	-6%	-16%	0.2	-13	17%
Cc1ccc2oc3c(c(=O)c2c1)C(c1cccc(Br)c1)N(Cc1ccco1)C3=O (centres undefined)	-1	6%	6%	0.1%	3.5	-11	-17%
O=C(/C=C/c1ccco1)NC(=S)Nc1ccc(O)c(-c2nc3ccccc3s2)c1	-4	-19%	0%	-7.6%	3.4	-1	-47%[inhibitor]
O=C(CSc1nc2ccccc2c(=O)n1CCCN1CCOCC1)N1CCN(c2ccccc2)CC1	26	13%	-9%	-2.3%	0.2	1	21%
CNC(=O)c1sccc1SCc1ccc(Cl)cc1Cl	8	-2%	u	1.5%	0.9	10	-33%
COc1ccccc1N1CCN(C(=O)Cc2ccc(Cl)cc2)CC1	-1	22%	-4%	1.8%	-0.7	-13	-6%[15.4 µM]
N=c1oc2ccc(Cl)cc2cc1C(=O)NC1CCCCCC1	21	-5%	-5%	0.7%	7.8	2	-8%
CCc1nn(CC(=O)O)c(=O)c2ccccc12	-1	10%	6%	-4.4%	-1.2	-2	-27%
Clc1cccc(-c2nnc(SC/C=C/c3ccccc3)n2Cc2ccco2)c1	6	7%	-15%	1.1%	3.0	-14	5%

As a short view, some entries already given:
SMILES	TRPML1 inh	Sfp PPTase inh	gsp antagonist	ClpP mod	Menin MLL FP FL	TRPV1 potentiator	gsp agonist
CCC(C)N1C(=O)C2C(C(=O)Nc3cccc(OC)c3)C3C=CC2(O3)C1C(=O)NC1CCCCC1C (centres undefined)	41	8%	0%	-4.0%	1.4	8	-16%
CC1=NN(C(=O)c2ccccc2Br)C(O)(c2ccc(Cl)cc2)C1 (centres undefined)	x	12%	-6%	0.5%	0.8	6	-27%

Remaining list, next part
SMILES	TRPML1 inh	Sfp PPTase inh	gsp antagonist	ClpP mod	Menin MLL FP FL	TRPV1 potentiator	gsp agonist
O=C(COC(=O)Cc1ccc(-c2ccccc2)cc1)NCc1ccc(F)cc1	16	19%	-11%	-0.7%	3.2	4	4%[15.4 µM]
OC1CCN(c2ncnc3c2nnn3Cc2c(F)cccc2Cl)CC1	-6	-5%	6%	-2.1%	-2.1	-1	4%[15.4 µM]
c1ccc(-c2nnc3sc(-c4csc5c4CCCC5)nn23)cc1	50	6.3µM*	-3%	1.9%	-0.6	8	-17%
N#CC(C#N)=C1CCc2ccccc2N1	-16	5%	12%	-1.8%	-1.1	-8	-63%[inhibitor]
CC(Oc1ccc2c(-c3ccccc3)cc(=O)oc2c1)C(=O)NC(Cc1c[nH]c2ccccc12)C(=O)O (centres undefined)	-5	x	6%	x	x	x	20%
COc1cccc2cc(C(=O)N3CCN(C45CC6CC(CC(C6)C4)C5)CC3)c(=O)oc12	-8	-9%	9%	-1.6%	6.6	-7	-1%
O=S(=O)(c1ccc(N2CCOCC2)cc1)N1CCOCC1	-19	7%	13%	-1.1%	1.4	5	11%
O=C(NCc1ccccc1)/C(=C\c1ccc([N+](=O)[O-])cc1)NC(=O)c1ccco1	31	5%	4%	-0.2%	-0.3	4	-21%
COC(=O)C1=C(C)N(Cc2ccccc2)C(=NCC(C)C)N[C@H]1c1ccccc1	7	17%&11%	7%	-7.9%	u	-3&0	4%
Cc1cccc(NC(=O)CN2CCN(C(=O)c3c(C)nn(Cc4ccccc4)c3C)CC2)c1C	-23	x	-8%	2.0%	x	-3	-36%[inhibitor]
COc1cc(-c2n[nH]c(=S)n2-c2cc(C(F)(F)F)ccc2Cl)cc(OC)c1OC	24	10%	-28%	-1.1%	2.8	4	11%
O=C(CN1CCCCCC1)Nc1ccccc1Cl	2	11%	6%	-1.2%	-2.1	-9	-4%
Cc1c(Cl)ccc(S(=O)(=O)NCCN2CCOCC2)c1Cl	30	9%	1%	1.3%	0.8	0	0%
COc1cc(C2Nc3ccc4ncccc4c3C3=C2C(=O)CCC3)ccc1O (centres undefined)	-5	-14%	11%	-7.3%	-1.9	-3	0%
COCCN(C(=O)C1CCCO1)c1c(N)n(CC(C)C)c(=O)[nH]c1=O (centres undefined)	-7	x	6%	-1.5%	x	u	-10%
CCCn1c(=O)c2ccccc2n2c(SCC(=O)c3ccccc3)nnc12	35	2%	-21%	1.9%	2.9	2	-17%
O=C(NCCNC(=O)c1cccs1)c1ccco1	2	-3%	17%	0.8%	-1.6	-3	-15%
Cc1cccc(NC(=O)CC2C(=O)NC3CCCCC3N2C(=O)c2ccccc2Cl)c1 (centres undefined)	26	4%	-11%	-0.1%	2.9	14	0%[15.4 µM]
Cc1ccc(S(=O)(=O)NCC(=O)OCC(=O)N(C)C2CCCCC2)cc1	3	x	-10%	1.1%	x	3	-34%[inhibitor]
CC(=O)c1ccc(N(CC(=O)NC2CCCCC2)C(=O)CNC(=O)c2cccs2)cc1	-7	12%	-9%	2.0%	-0.1	-10	11%[15.4 µM]
COc1ccccc1C(=O)NC(=O)Nc1nc(-c2ccccc2)cc(C(F)(F)F)n1	-10	28%	3%	0.2%	1.4	-6	23%
COc1ccc(-c2cc3nc(-c4ccccc4)cc(N4CCC(O)CC4)n3n2)cc1	11	-15%	u	x	5.2	-6	9%[15.4 µM]
Cc1ccc(CNS(=O)(=O)c2ccc(Br)s2)cc1	x	9%	-1%	0.3%	-4.4	-19	-9%
CCOc1ccc(S(=O)(=O)N2CCC(C(=O)NCc3ccco3)CC2)cc1C	26	9%	4%	x	3.9	3	6%
CCCc1cc(=O)oc2cc(OCC(=O)NCC(O)c3ccccc3)ccc12 (centres undefined)	4	14%	4%	4.1%	-1.3	2	3%
COc1ccc(N2CCN(CC(=O)Nc3c(C)cccc3C)CC2)cc1	-5	x	x	-3.5%	x	x	-38%[inhibitor]
O=C1CC(c2ccccc2)CC(O)=C1C=NCCCO (centres undefined)	12	7%	6%	0.8%	1.6	-15	-13%

Among those listed so far, these contain a COOH group.
SMILES	TRPML1 inh	Sfp PPTase inh	gsp antagonist	ClpP mod	Menin MLL FP FL	TRPV1 potentiator	gsp agonist
Cc1occc1C(=O)NCc1ccc(C(=O)O)o1	8	50µM*	4%	0.2%	u	-2	-4%
CCc1nn(CC(=O)O)c(=O)c2ccccc12	-1	10%	6%	-4.4%	-1.2	-2	-27%
CC(Oc1ccc2c(-c3ccccc3)cc(=O)oc2c1)C(=O)NC(Cc1c[nH]c2ccccc12)C(=O)O (centres undefined)	-5	x	6%	x	x	x	20%

Record cards (already shown):
`CC(=O)c1ccc(N(CC(=O)NC2CCCCC2)C(=O)CNC(=O)c2cccs2)cc1` is listed with TRPML1 inh: -7; Sfp PPTase inh: 12%; gsp antagonist: -9%; ClpP mod: 2.0%; Menin MLL FP FL: -0.1; TRPV1 potentiator: -10; gsp agonist: 11%[15.4 µM]
`O=C(CCc1ccccc1)NNC(=O)COc1ccccc1` is listed with TRPML1 inh: 49; Sfp PPTase inh: -3%; gsp antagonist: 11%; ClpP mod: 0.0%; Menin MLL FP FL: 0.3; TRPV1 potentiator: -34; gsp agonist: -5%
